# Screening data (PubChem)
# StopGo reporter = lowers the luciferase signal of an FMDV 2A StopGo reporter; human cells with a luciferase reporter of 2A StopGo recoding; control for the full effect not named in the record; Potency, µM (series often up to 57.9 µM), for inactives: at the top dose signal change, negative = less light; 410,000 tested, 1.2% active; active = well fitted falling curve with a large enough effect; inconclusive = small, poorly fitted or top-dose-only effect; inactive = no such curve, though single readings can be large or run the other way; tested in HEK293T cells; note: % is set by controls: 0 for no effect and ±100 for the full control effect; nearly all actives have a fitted effect of over 45% in size; luciferase light after 4 h
# Lassa entry inh = blocks Lassa virus binding to or entry into cells; Potency, µM (top dose mostly 37.9 µM), for the others: top-dose activity change, negative = inhibition, usual class: inhibitors; AID 540256; 300,000 tested, 1.2% active; Lassa virus pseudotype entry inhibition, cell reporter; control for the full effect not named in the record; active means well fitted inhibition curve with a large enough effect; inconclusive means small, poorly fitted or top-dose-only effect, or effect the other way; inactive means flat fitted curve, though single readings scatter; tested in HEK293 cells; note: % is set by controls: 0 for no effect and ±100 for the full control effect; nearly all actives have a fitted effect of over 50% in size; luciferase read-out
# SARS PLP yeast = blocks SARS-CoV papain-like protease in a yeast assay; S. cerevisiae expressing SARS-CoV PLpro, growth rescue; control for the full effect not named in the record; AID 485353; 330,000 tested, 0.19% active; Potency, µM (series often up to 32.9 µM), inactives show at the highest dose activity, positive = growth rescue; active means well fitted rising curve with a large enough effect; inconclusive means small, poorly fitted or top-dose-only effect; inactive means no such curve, though single readings can be large or run the other way; note: 0% is about no effect; nearly all actives have a fitted effect of over 55% in size; growth read by luminescence after 48 h
# RE007 growth inh = less growth of the S. pombe RE007 Vpr strain. S. pombe RE007 Vpr strain, BacTiter-Glo ATP luminescence, 24 h; control for the full effect not named in the record. 360,000 tested, 0.21% active. Potency, µM (highest dose often 92.2 µM), inactives show top-dose activity change, negative = less growth; active = well fitted falling curve with a large enough effect; inconclusive = small, poorly fitted or top-dose-only effect; inactive = no such curve, though single readings can be large or run the other way;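 note: % is set by controls: 0 for no effect and ±100 for the full control effect; nearly all actives have a fitted effect of over 50% in size; the assay follows cell death caused by Vpr and the record does not say whether a fall means rescue or toxicity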
#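 Fission yeast strain RE007, carrying one chromosomally integrated HIV-1 vpr copy, was seeded at OD 0.01 in PMG+AL medium with 23 nL pinned compound. After 24 h at 30 °C and 99% humidity, viability was read by BacTiter-Glo luminescence.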
# NS1 inh = influenza NS1 inhibition; S. cerevisiae slowed by influenza A NS1, growth recovery by OD600; Potency, µM (titrated, usually from 46.1 µM), without a hit: at the top dose activity, positive = more growth; 270,000 tested, 0.4% active; AID 2326; active means well fitted rising curve with a large enough effect; inconclusive means small, poorly fitted or top-dose-only effect; inactive means no such curve, though single readings can be large or run the other way; note: nearly all actives have a fitted effect of over 50% in size
#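 S. cerevisiae expressing influenza A NS1, grown in glucose, washed, then diluted 1:100 into pH 6.0 -URA galactose medium with 23 nl compound. Growth recovery read as OD600; NS1-free strain serves as control.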
# Cruzain inh noDet = inhibitors of Trypanosoma cruzi cruzain without detergent | P25779 | purified cruzain, Z-FR-AMC fluorescence, no detergent | Potency, µM, for inactives: max response, negative = inhibition, hits mostly inhibitors | 200,000 tested, 2.3% active;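 note: plate controls were enzyme without inhibitor for no effect and buffer without enzyme for full effect; nearly all actives have a fitted effect of over 40% in size; top concentration of the series not given in the record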
# Target sequence (P25779 123-467 limits assumed): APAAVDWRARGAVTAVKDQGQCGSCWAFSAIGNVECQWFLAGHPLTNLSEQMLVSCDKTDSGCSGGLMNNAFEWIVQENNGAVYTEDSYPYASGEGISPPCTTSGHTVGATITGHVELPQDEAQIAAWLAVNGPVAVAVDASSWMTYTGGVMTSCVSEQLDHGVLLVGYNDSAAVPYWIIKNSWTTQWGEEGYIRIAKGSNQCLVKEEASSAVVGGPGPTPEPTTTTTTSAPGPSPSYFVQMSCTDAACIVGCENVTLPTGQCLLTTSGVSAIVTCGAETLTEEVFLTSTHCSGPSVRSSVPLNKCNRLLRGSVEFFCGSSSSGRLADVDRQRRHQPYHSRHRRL
#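 Purified cruzain at 1.5 nM, pre-incubated 15 min with compound at room temperature in 100 mM sodium acetate pH 5.5, 5 mM DTT, 0.00005% Triton X-100. Reaction started with 2 uM Z-FR-AMC; AMC fluorescence increase over 60 s gives rate.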
# Marburg entry inh = inhibitors of Marburg virus binding or cell entry; Marburg virus pseudotyped entry inhibition, cell reporter; control for the full effect not named in the record; about a third of the inactives were read at about 46 µM; Potency, µM (series often up to 37.8 µM), without a hit: at the highest dose activity change, negative = inhibition, hits mostly inhibitors; 300,000 tested, 1.8% active; active = well fitted inhibition curve with a large enough effect; inconclusive = small, poorly fitted or top-dose-only effect, or effect the other way; inactive = flat fitted curve, though single readings scatter; tested in HEK293 cells; about a fifth of its hits are not listed in these tables; note: % is set by controls: 0 for no effect and ±100 for the full control effect; luciferase read-out
# Cruzain Triton = blocks cruzain activity in presence of Triton detergent | P25779 | purified cruzain, Z-FR-AMC fluorescence, 0.01% Triton | Potency, µM, for the others: max response, negative = inhibition, hits mostly inhibitors | 200,000 tested, 0.43% active | AID 1478;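 note: plate controls were neutral wells for no effect and buffer without enzyme for full effect; nearly all actives have a fitted effect of over 40% in size; top concentration of the series not given in the record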
#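 Compounds were screened in titration against cruzain (1.5 nM) with 0.01% Triton X-100 to counter colloidal aggregation. Activity was the AMC fluorescence increase over 60 s after adding 2 uM Z-FR-AMC at pH 5.5.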
# An asterisk follows results filed as active; ? = inconclusive; / = not tested or not shown; [ ] = dose if it differs, or a comment. Unless noted, calls come from the whole dose curve; as a rule, active = well fitted curve in the direction sought with a large enough effect; inconclusive = small, poorly fitted or top-dose-only effect, or another doubt; inactive = no such curve, though single readings can be large; an effect the other way counts as inactive or inconclusive. Potency is the fitted concentration of half-maximal effect.
SMILES,StopGo reporter,Lassa entry inh,SARS PLP yeast,RE007 growth inh,NS1 inh,Cruzain inh noDet,Marburg entry inh,Cruzain Triton
O=C(Cn1c(=O)n(-c2ccc(Cl)cc2)c(=O)c2c3c(sc21)CCC3)c1ccccc1,7%,?,/,/,/,0%,18%[46.1 µM],-2.2%
C=CCn1c(O)c(C(C)=NCc2ccco2)c(=O)[nH]c1=O,-2%,-23%,3%,6%,1%,-6%,0%,1.2%
CCCS(=O)(=O)N1CCCC(C(=O)NCCCOC(C)C)C1 (stereo not given),-14%,2%,2%,-10%,-4%,15%,7%,3.1%
N#Cc1ccc(COc2cccnc2[N+](=O)[O-])cc1,-1%,9%[46.1 µM],-2%,-26%,2%,/,15%[46.1 µM],/
CCc1ccc(OCC(O)Cn2c(N3CCCCC3)nc3c2c(=O)[nH]c(=O)n3C)cc1 (stereo not given),-28%,/,-2%,6%,7%,/,/,/
CCn1ccnc1CN1CCc2c([nH]c3ccccc23)C1C(C)(C)C (stereo not given),-22%,-19%[46.1 µM],-2%,0%,1%,/,?,/
Cc1cccc(N(CC(=O)N2CCOCC2)S(C)(=O)=O)c1,8%,6%,-1%,6%,-5%,2%,1%,6.4%
COc1ccccc1C(=O)Nc1ccnn1C1CCN(Cc2cnc(N(C)C)s2)CC1,-6%,3%[46.1 µM],26%,-7%,2%,/,4%[46.1 µM],/
CCSc1nnc([C@@H]2CCCN2C(=O)OC(C)(C)C)o1,-16%,-1%,-9%,11%,-15%,2%,?,1.2%
COc1ccc(S(=O)(=O)Nc2ccc(Oc3ccsc3C(=O)O)cc2)cc1,3%,/,4%,6%,3%,/,/,/
CCS(=O)(=O)c1ccc2oc(Nc3cccc(OC)c3)nc2c1,42%[activator],?,0%,0%,/,/,?,/
O=C(NCC1CC1)C1CCCN(S(=O)(=O)c2ccc(-n3cnnn3)cc2)C1 (stereo not given),9%,-1%,2%,8%,-3%,-5%,15%,2.2%
Fc1cccc(Cl)c1-c1nnc2ccc(N3CCOCC3)nn12,10%,-7%,0%,-17%[3.69 µM],-2%,-3%,8%,0.4%
COc1ccc(CN(C(=O)CO/N=C/c2ccccc2)c2ccccc2C(=O)O)cc1,12%,-12%,9%,-25%,7%,?,1%,-4.4%
COc1cc(/C=C2/CCCC(C(=O)C(F)(F)F)=C2O)ccc1O,-10%,7%,2%,-1%,8%,/,5%[46.1 µM],/
C=CCSc1nnc(NC(=O)CSc2nnc(C)s2)s1,-14%,8%,0%,18%,-16%,5%,-4%,1.8%
CN(C)C(CNC(=O)c1cc2ccccc2oc1=O)c1ccccc1 (stereo not given),0%,-19%,-4%,-5%,-7%,/,-1%[46.1 µM],/
Cc1ccc(N(CC(=O)Nc2cccc(Cl)c2)S(=O)(=O)c2cccs2)cc1,-13%,3%[46.1 µM],/,/,/,-15%,-17%[46.1 µM],-9.7%
CCOC(=O)C1=C(CSc2nnnn2C)N(C)C(=O)NC1c1ccccc1 (stereo not given),-11%,?,-6%,1%,0%,-2%,7%[46.1 µM],-1.2%
Cc1ccc(-c2nc3ncccc3o2)cc1NC(=O)C(C)C,-1%,11%[46.1 µM],2%,10%,3%,/,13%[46.1 µM],/
CCOc1ccc(C2CC(c3cccc(Cl)c3)n3nc(N)nc3N2)cc1 (stereo not given),-15%,-2%,-6%,-1%,-6%,-26%,-19%,-2.6%
O=C(O)/C(=C\c1cccc(C(F)(F)F)c1)c1ccc(S(=O)(=O)N2CCCC2)s1,-8%,9%,-1%,-4%,/,/,?,/
COc1ccccc1C(=O)CSc1n[nH]c(N)n1,25%,14%,0%,3%,12%,-4%,?,1.8%
CCCOc1ccccc1OCC(=O)Nc1cccc(S(=O)(=O)NC2=NCCC2)c1,-8%,?,1%,7%,/,/,?,/
CC(C)Oc1ccc(C2c3c(oc4ccccc4c3=O)C(=O)N2CCCN2CCOCC2)cc1 (stereo not given),0%,-1%,-2%,-14%,4%,-6%,-4%,0.6%
CCN(CC)c1ccc(C2N(C(=O)N3CCOCC3)CCN2S(=O)(=O)c2ccc(C)cc2)cc1 (stereo not given),17%,-30%,?,8%,-11%,?,-10%,4.1%
COc1cccc(N(CC(=O)N2CCCC2)S(C)(=O)=O)c1,-6%,/,-4%,4%,-1%,/,/,/
COc1ccccc1CNS(=O)(=O)c1ccc2c(c1)CCCN2C(C)=O,17%,7%[46.1 µM],16%,11%,?,/,12%[46.1 µM],/
Cc1ccc(Cl)cc1NC(=O)Nc1nnc(N2CCCC(C)C2)s1 (stereo not given),-5%,2%[46.1 µM],/,/,/,-13%,?,-7.2%
Cc1ccc(Nc2nnc(SC(C)C(=O)NC3CC3)s2)cc1 (stereo not given),-5%,2%,3%,6%,/,/,12%,/
C/C=C/c1ccc(O)c(OC)c1,-3%,/,1%,-4%,/,-1%,/,2.2%
O=C(CSc1nnnn1-c1cccc2ccccc12)NC(C(=O)O)(c1ccccc1)c1ccccc1,-16%,0%[46.1 µM],9%,0%,/,/,10%[46.1 µM],/
O=C(CCn1nc(-c2ccc(Cl)cc2)ccc1=O)N1CCN(c2ccccc2)CC1,-18%,/,-4%,6%,8%,/,/,/
O=S(=O)(/N=C(/NC(=S)Nc1ccccc1)c1ccccc1)c1ccc(Cl)cc1,54%[activator],?,-3%,-23%,-16%,/,?,/
O=C1NN(c2ccccc2)C(=O)C2C3C=CC(C4CC34)C12 (stereo not given),-5%,5%,5%,0%,4%,0%,1%,3.2%
O=C(Nc1ccc(NC(=O)c2ccco2)cc1)c1ccco1,43%[activator],0%[46.1 µM],13%,-12%,2%,/,11%[46.1 µM],/
CSc1ccc(Cl)c(C(=O)OCC(=O)Nc2ccccc2OC(F)F)c1,-15%,5%,-20%,-19%,-23%,16%,-2%,-7.9%
CSc1ccccc1OCc1cc(C(=O)N(C)Cc2cc(C)[nH]n2)no1,13%,?,/,1%,10%,/,18%[46.1 µM],/
Cc1cc(Cl)c(S(=O)(=O)N/N=C/c2ccc3c(c2)OCO3)c(Cl)c1,77%[activator],1%,-48%,-20%,-196%,8%,11%,-12%
O=C(NCc1cccnc1)c1ccc(Cl)c(Cl)c1,0%,15%,5%,8%,-1%,-19%,-23%,3.8%
CCOC(=O)C(=O)/C(C#N)=C/Nc1ccccc1,-12%,-1%,5%,2%,-2%,-2%,19%,1.6%
C=CCN1C(=O)/C(=C/c2ccc(O)cc2)S/C1=N/c1nccs1,-5%,?,-11%,-13%,3%,-22%,?,-12%
CCCCn1c(NS(=O)(=O)c2ccccc2)c(C(=O)OCC)c2nc3ccccc3nc21,0%,?,-34%,0%,-28%,?,4.6µM*,-9.0%
CCOC(=O)Cn1c(=O)oc2cc(S(=O)(=O)Nc3ccc(N(CC)CC)cc3C)ccc21,-7%,/,-4%,2%,-24%,1%,-1%,2.0%
CCc1ccc(C2=NN(CCC(=O)NC(C)CCc3ccccc3)C(=O)CC2)cc1 (stereo not given),?,-3%,-6%,8%,/,/,?,/
COc1cc(C)ccc1OCCOc1ccccc1Cl,39%[activator],14%,-19%,-15%,-73%,2%,?,0.6%
COc1ccc2c(c1)cc(C(=O)N[C@@H](CCSC)C(=O)N1CCC[C@H]1C(=O)O)n2C,-16%,/,1%,5%,23%,/,/,/
COc1ccc(CCN(C(=O)c2cccc(F)c2)C2CC(=O)N(c3ccccc3)C2=O)cc1 (stereo not given),-21%,0%,-5%,-4%,-8%,-4%,21%,-2.8%
COC(=O)CC1C(=O)NCCN1C(=S)NC(=O)CCc1ccccc1 (stereo not given),-7%,/,0%,3%,0%,/,/,/
COc1ccccc1N1CCN(Cc2ccc(O)c3ncccc23)CC1,?,10µM*,14%,?,-53%,19%,?,0.0%
# Remaining list, next part.
SMILES,StopGo reporter,Lassa entry inh,SARS PLP yeast,RE007 growth inh,NS1 inh,Cruzain inh noDet,Marburg entry inh,Cruzain Triton
Cc1ccc(C2c3c(oc4ccccc4c3=O)C(=O)N2c2nncs2)cc1 (stereo not given),-11%,2%,2%,2%,0%,/,8%[46.1 µM],/
O=C(Nc1cc(=O)[nH]c2ncnn12)c1ccccc1,1%,3%,0%,1%,3%,4%,0%,0.0%
Cc1nn(-c2ccccc2)c(C)c1Cc1ccc(O)cc1,-10%,/,-5%,12%,-10%,/,/,/
COc1ccccc1CC(=O)N1CCN(CCc2ccccc2)CC1,-6%,-6%[46.1 µM],0%,-9%,-7%,/,-4%[46.1 µM],/
CC(C)CN(C(=O)COC(=O)c1ccc(Cl)c(N)c1)c1c(N)n(Cc2ccccc2)c(=O)[nH]c1=O,-15%,1%[46.1 µM],-3%,16%,/,/,19%,/
Cc1ccnc(NCc2cc(C)ccc2O)c1,58%[activator],28%,-5%,-7%,-5%,/,28%,/
O=C1Cc2ccccc2C(c2ccc(Cl)cc2Cl)N1 (stereo not given),-30%,/,-5%,9%,-22%,/,/,/
FC(F)(F)c1cccc(NC(=S)NCCc2ccccn2)c1,49%[activator],0%,4%,-4%,-4%,3%,2%,2.3%
CCC(=O)Nc1cccc(OCc2cc(=O)n3cc(C)ccc3n2)c1,21%,20%[46.1 µM],/,/,/,-6%,/,-0.8%
C=CCc1cccc2cc(C(=O)NNC(=O)CC#N)c(=O)oc12,6%,6%,0%,-13%,-2%,/,3%,/
CCOC(=O)C1=C(C)NC(=O)NC1c1c(OC)ccc2ccccc12 (stereo not given),-25%,1%[46.1 µM],7%,6%,-4%,/,-2%[46.1 µM],/
COc1ccc(CN(Cc2ccco2)c2cnc(S(C)(=O)=O)nc2C(=O)Nc2ccc(C)c(Cl)c2)cc1,-5%,-1%[46.1 µM],/,/,/,7.9µM*,?,-1.7%

# For convenience, part of the list above.
SMILES,StopGo reporter,Lassa entry inh,SARS PLP yeast,RE007 growth inh,NS1 inh,Cruzain inh noDet,Marburg entry inh,Cruzain Triton
CCOC(=O)C1=C(C)NC(=O)NC1c1c(OC)ccc2ccccc12 (stereo not given),-25%,1%[46.1 µM],7%,6%,-4%,/,-2%[46.1 µM],/
COc1ccc(CN(Cc2ccco2)c2cnc(S(C)(=O)=O)nc2C(=O)Nc2ccc(C)c(Cl)c2)cc1,-5%,-1%[46.1 µM],/,/,/,7.9µM*,?,-1.7%
